# Bead autofluor = counter-screen for toxin protease inhibitors: compound fluorescence; compound autofluorescence counterscreen, microsphere flow cytometry; stronger effect = higher value; fluorescence intensity (concentration not given with the values); 360,000 compounds, 3.1% hits; AID 624483;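 active = at least 3 SD above the mean of all compounds, about 16000 in these data; inconclusive = too few beads counted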;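 also: 100 nL of 1 mM stock went into each well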
# Mtb hypoxia inh = PubChem AID 1159583; M. tuberculosis hypoxia-regulated fluorescent reporter, fluorescence; fluorescence inhibition, % (concentration not given with the values); 300,000 compounds, 0.1% hits;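 active = 35 to 45% if threefold the growth effect, above 45% if 1.5-fold the growth effect; inactive = the rest, general growth blockers included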;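 also: wells of about 50 µL received 100 nL stock; 0% = vehicle wells and 100% = reference inhibitor wells; whole bacteria with a GFP reporter of the hypoxia response; strong numbers were not always called active; many hits fall short of the cut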
# ugtP null kill = growth inhibition of ugtP-null S. aureus, primary screen, RN4220 ugtP deletion, OD600 | growth inhibition, % (no concentration beside the values) | 330,000 compounds, 0.54% hits | 16 h; some inactives read as strong as hits;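 active = z-score under -3 and OD600 up to 0.15 on both plates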;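 also: plate controls were untreated wells for no effect and antibiotic for full effect; wells of about 80 µL received 100 nL stock; the first replicate is given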
# PrP UTR inh = inhibition of PrP 5' UTR reporter expression | 340,000 compounds, 0.35% hits | cell-based PrP 5' UTR mRNA reporter, plate reader | inhibition, % (no concentration beside the values) | AID 488862, 2010;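 active = every replicate at 50% or more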;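 also: 0 = median of the neutral control wells; tested in H4 reporter cells; numbers are from one replicate; inactives centre near -14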
# RN4220 kill = growth inhibition of S. aureus RN4220, primary screen, OD600. 16 h. inhibition, % (no concentration beside the values). 330,000 compounds, 0.33% hits;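 active = z-score of -3 or lower and OD600 up to 0.18 on both plates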;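 also: plate controls were untreated cells for no effect and reference antibiotic for full effect; stock transfer was 100 nL into about 80 µL; one replicate is shown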
# BJeLR viability = MLPCN primary cell-based screen for lethality selective to Ras in HRASV12 cells. BJeLR (HRASV12) viability, CellTiter-Glo ATP luminescence, 48 h; reference of the scale not given here. AID 1554, 2009. 300,000 compounds, 0.17% hits. inhibition, % (test concentration not listed);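 active = replicate mean above 50%; inconclusive = above 50% but judged a plate artefact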;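 also: 50 nL library stock added to about 25 µL; numbers are from one replicate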
# Mtb hypoxia inh growth = also measured in Mtb hypoxia inh; calls as there; growth inhibition, %; measured here: M. tuberculosis growth (absorbance);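 0% = vehicle and 100% = reference antibiotic; read after six days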
# * marks the source's active call; other numbers are inactive results; ? = inconclusive; · = no result given; & = joins results of further samples.
SMILES,Bead autofluor,Mtb hypoxia inh,Mtb hypoxia inh growth,ugtP null kill,PrP UTR inh,RN4220 kill,BJeLR viability
CCOC(=O)CN(C(=O)COC(=O)C1=NNC(=O)CC1)c1ccc(F)cc1,4135,4,8,3,-16,3.0,·
NC1=NC2=C(CCCC2)C2(CCCCC2)S1,?,-1,3,19,4,-1.1,0
O=c1cc(CS(=O)(=O)c2ccccc2)nc(-c2ccncc2)[nH]1,4251,12,9,-2,-34,0.8,-1
CC1CCCCC1NC(=O)CSc1nnc(-c2ccco2)n1C (stereo not given),3650,12,12,7,-24,7.6,·
Cc1ccc(CNC(=O)c2cc3c(=O)n(C)c4ccccc4c3n2C)o1,4435,·,·,6,-6,5.3,-18
CSc1ccccc1OCc1cc(C(=O)N(C)Cc2ccncn2)no1,5531,-1,-5,-3,-50,-0.3,-5
CCN(CC)CCCNC(=O)CSc1nc(-c2cccs2)cc(C(F)(F)F)n1,4854,13,11,5,-25,9.0,11
Cc1ccc(C)c(/C=C2\N=C(c3ccccc3F)OC2=O)c1,3685,9,10,8,-10,3.6,-31
CCn1c(SCC(=O)Nc2ccc3c(c2)OCCO3)nnc1-c1cccnc1,3308,7,-5,4,-11,4.3,0
O=C(Nc1ncc2c(n1)-c1ccccc1OC2)c1ccc(Cl)cc1Cl,16392*,3,1,1,-19,1.2,5
CCc1cc2c(cc(C(=O)O)n2C)s1,2874,-5,0,-9,-11,5.7,1
CC(C)n1c(SCC(=O)Nc2ccc3c(c2)OCO3)nc2c1c(=O)n(C)c(=O)n2C,8256,7,11,1,-19,-1.4,7
CCOC(=O)CSc1nnc(-c2ccc(OC)cc2OC)o1,7184,17,10,3,-22,0.0,-10
Cc1nc(C#N)c(N/N=C/c2c(F)cccc2Cl)o1,5443,·,·,·,-20,·,3
COC(=O)C1=C(c2cccc(OC)c2OC)CC2CCC1N2C(=O)NCCO (stereo not given),·,7,8,-8,·,7.5,·
COCCNC(=O)Cn1cc(/C=N/NC(=O)c2ccc(Oc3ccc(O)cc3)cc2)c2ccccc21,4673,·,·,·,-6,·,-4
CCCc1ncc(C(=O)c2ccc(OC)cc2)n1C,24262*,1,0,5,-37,9.2,-13
COc1ccc(C(=O)NCC(=O)n2nc(C)cc2C)cc1OC,10924,5,1,2,-9,4.8,5
Cc1ccc(Cn2c(C(C)Nc3nc(-c4ccc(Cl)c([N+](=O)[O-])c4)cs3)nc3cc(C(F)(F)F)ccc32)cc1 (stereo not given),4113,-1,-3,-6,-19,-2.6,-1
Cc1nc2ccc(NS(=O)(=O)c3c(F)cc(F)cc3Br)cc2s1,3103,10,-2,-4,-15,18,·

# Two of the compounds above, with tabs:
SMILES	Bead autofluor	Mtb hypoxia inh	Mtb hypoxia inh growth	ugtP null kill	PrP UTR inh	RN4220 kill	BJeLR viability
CCc1cc2c(cc(C(=O)O)n2C)s1	2874	-5	0	-9	-11	5.7	1
Cc1ccc(Cn2c(C(C)Nc3nc(-c4ccc(Cl)c([N+](=O)[O-])c4)cs3)nc3cc(C(F)(F)F)ccc32)cc1 (stereo not given)	4113	-1	-3	-6	-19	-2.6	-1

# Additional records
SMILES,Bead autofluor,Mtb hypoxia inh,Mtb hypoxia inh growth,ugtP null kill,PrP UTR inh,RN4220 kill,BJeLR viability
O=C(NC(=S)NC1CCSC1=O)c1cccs1 (stereo not given),1964,14,4,-13,-7,3.2,-4
C=CCn1c(CC(=O)Nc2ccc(C)cc2C)nnc1SCC(=O)N1CCOCC1,5421,0,3,7,-6,2.7,-11
COC(C(=O)Nc1ccc(S(=O)(=O)Nc2ccc(C)c(C)c2)cc1)c1ccccc1 (stereo not given),1942,-3,8,-4,-4,-4.6,0
CC1CCN(C(=O)CN(c2cccc(F)c2)S(C)(=O)=O)CC1,3678,9,5,1,-20,3.0,-5
NC(=O)C1(N2CCCCC2)CCN(Cc2ccc(Br)cc2)CC1,4483,11,4,1,-7,-0.4,-4
N=c1c(C(=O)NC2CCCCC2)cc2c(=O)n3ccccc3nc2n1Cc1cccnc1,4718,-8,0,5,-4,1.1,-5
CCOC(=O)[C@@H]1[C@H]2COc3cc(OC)ccc3[C@@H]2N2C(=O)N(c3ccc(OC)cc3)C(=O)[C@]12C,4370,·,·,·,-20,·,-2
NC(=O)C1CCN(C(=O)C23CC4CC(CC(C4)C2)C3)CC1,3471,·,·,13,-16,1.6,-7
Cc1cc(C(=O)N/N=C/c2ccc(C)o2)c2ccccc2n1,10326,·,·,·,-12,·,36
O=C(NCc1ccncc1)C(=O)NCC1OCCN1S(=O)(=O)c1ccc(Br)cc1 (stereo not given),5000,-5,-3,4,-5,2.4,6

# Grouped by structure, those above containing a furan ring, fused or not (3)
SMILES,Bead autofluor,Mtb hypoxia inh,Mtb hypoxia inh growth,ugtP null kill,PrP UTR inh,RN4220 kill,BJeLR viability
CC1CCCCC1NC(=O)CSc1nnc(-c2ccco2)n1C (stereo not given),3650,12,12,7,-24,7.6,·
Cc1ccc(CNC(=O)c2cc3c(=O)n(C)c4ccccc4c3n2C)o1,4435,·,·,6,-6,5.3,-18
Cc1cc(C(=O)N/N=C/c2ccc(C)o2)c2ccccc2n1,10326,·,·,·,-12,·,36

# Following part:
SMILES,Bead autofluor,Mtb hypoxia inh,Mtb hypoxia inh growth,ugtP null kill,PrP UTR inh,RN4220 kill,BJeLR viability
COC(=O)n1c(=O)oc2cc(S(=O)(=O)N3CCOCC3)ccc21,20705*,7,6,4,0,8.3,-4
O=C(CSCc1cc(=O)[nH][nH]1)Nc1ccc(F)cc1,4445,-1,-19,3,-29,3.5,4
CC(=O)c1cccc(N(C(=O)c2ccco2)C(C(=O)NC2CCCC2)c2cccs2)c1 (stereo not given),3601,-2,6,4,-12,1.4,-1
O=[N+]([O-])c1ccc(S(=O)(=O)CC(CN2CCCCC2)N2CCCCC2)cc1 (stereo not given),4805,18,27,2,8,2.5,22
Cc1ccc(N(CC(=O)NN=Cc2ccc(OCC(N)=O)cc2)S(C)(=O)=O)cc1Cl,·,-4,-6,-4,·,2.9,·
COCCn1c(SCCCc2ccccc2)nc2c1c(=O)[nH]c(=O)n2C,4884,·,·,-2,-10,4.8,0
O=C(COC(=O)/C=C/c1cccs1)Nc1cccc(S(=O)(=O)N2CCOCC2)c1,4293,8,5,6,-4,11,5
CCOC(=O)C(C)Oc1ccc2c(C)cc(=O)oc2c1C(C)=O (stereo not given),15840,-1,-2,-1,5,-3.6,-2
CCc1nnc(NC(=O)c2ccc(S(=O)(=O)NC3CCCCC3)cc2)s1,9001,-1,3,-11,-21,5.6,-4
COc1ccc(CN2CC(COCc3ccccc3)Oc3ccccc3S2(=O)=O)cc1 (stereo not given),3416,-6,3,18,-4,4.0,·
Cc1cc([N+](=O)[O-])nn1CCCC(=O)Nc1c(C)n(C)n(-c2ccccc2)c1=O,5311,11,3,0,-4,5.1,-9
O=[N+]([O-])c1cccc(S(=O)(=O)N2CCN(S(=O)(=O)N3CCOCC3)CC2)c1,3056,5,-5,7,-25,2.2,-4
CCOC(=O)N1CCN(C(=O)C2CCN(CC3CCCCC3)CC2)CC1,2092,·,·,4,-14,6.0,-1
COC(=O)CCNCCSc1nnc(-c2ccco2)n1Cc1ccccc1,4433,7,11,6,-15,4.8,-6
Cn1nc(C(C)(C)C)cc1C(=O)O,3249,4,11,-2,-9,7.2,0
O=C(Cn1cnc2c(nnn2Cc2ccccc2)c1=O)c1ccc(Cl)cc1,5725,-3,7,-7,0,-2.5,-4
Cc1cc(C(=O)COc2cccnc2[N+](=O)[O-])c(C)n1-c1ccccc1F,5140,-1,-2,-1,36,3.0,11
CCCCn1c(N)c(N(CCOC)C(=O)CSCC(=O)Nc2cccc(C)c2)c(=O)[nH]c1=O,?,-3,-10,9,-2,0.7,1
CN(C)c1ccc(C(C(=O)NCc2ccccc2)N(Cc2cccnc2)C(=O)c2snc(C(N)=O)c2N)cc1 (stereo not given),3933,-8,1,8,-9,0.9,9
COc1ccc(Nc2cc(C(=O)NCCCN3CCN(C)CC3)c3ccccc3n2)c(OC)c1,3188,·,·,10,-12,11,-8
O=C(NCCCN1CCCCCC1)C1CC(=O)N(C2CCCC2)C1 (stereo not given),7977,3,-8,11,-2,5.1,-6
CCSc1nc(-c2ccc(OC)cc2)cc(-c2ccc(OC)cc2)c1C#N,9530,1,11,34,-20,-3.3,-11
CCN(CC)c1ccc(C=NNC(=O)Nc2nonc2N)cc1,·,7,3,13,·,3.4,·
CCN(CC(=O)Nc1ccccc1Br)C1CCCCC1,8746,-11,-13,-3,-16,2.9,-7
CCOC(=O)CCC(=O)Nc1ccc(S(=O)(=O)N2CCC(C)CC2)cc1,8792,15,-2,-2,-20,1.3,0
Cc1ccccc1C(=O)Nc1cc(S(=O)(=O)N2CCOCC2)ccc1N1CCN(C)CC1,3980,10,5,3,-15,3.4,·
COc1cc(C=NNC(=O)c2ccncc2)cc2c1OCO2,·,·,·,9,·,-3.5,·
COC(=O)c1sc(C(C)(C)C)cc1CS(=O)(=O)c1ccc(Cl)cc1,4104,2,4,7,-4,5.3,3
O=C(CSc1nnc2ccccn12)NNC(=O)c1ccc([N+](=O)[O-])cc1,4662,4,-1,0,-2,2.2,-1
CCN(CC)S(=O)(=O)c1cccc(-c2nnc(SCC(N)=O)n2N)c1,4614,-7,18,-6,-13,0.9,5
COc1ccc(N2C(=O)c3ccccc3NC2c2ccc(OC)c(CN3CCOCC3)c2)cc1 (stereo not given),4333,2,5,-3,-50,1.8,-2
COc1ccc(N2C(=O)CCC(C(=O)NCCN3CCOCC3)C2c2ccc(OC)c(OC)c2)cc1 (stereo not given),3502,·,·,11,-16,0.4,·
C=CCOc1c2ccc(C(=O)N(CC)c3ccc(OC)cc3)cc2nn1C,3473,6,12,2,-21,6.6,4
COc1ccc(-c2cc(C3C4C=CCC(C)C4C(=O)N3Cc3ccccc3)ccc2F)cc1OC (stereo not given),·,10,7,2,·,-0.5,·
O=C(O)CC1(Cc2nc(-c3cccs3)no2)CCCC1,6147,3,4,2,-9,17,-4
O=C(CCCn1c(SCC(=O)c2ccc(F)cc2)nc2ccccc2c1=O)NCc1ccco1,6216,-7,2,-2,-11,0.6,3
Cc1nn(CC(=O)N2CCC(N3CCCCC3)CC2)c(=O)c2c1sc1ccccc12,4556,-10,-9,-1,0,-1.6,-1
Cc1ccc(S(=O)(=O)NCC(=O)OCCOc2ccc(Br)cc2)cc1,7832,9,16,-2,-21,-0.1,·
Cc1cccc(C(=O)OC2C(Cc3ccccc3)NS(=O)(=O)C3CC4C=C[C@]23O4)c1 (stereo not given in full),·,-3&-6,8&15,2&0,·,8.2&8.4,·
CCN1C(=O)[C@@H]2[C@@H](c3ccc(-c4ccc(F)cc4)cc3)N3CCC[C@@]3(C(=O)OC)[C@@H]2C1=O,3758,·,·,·,-16,·,-8
O=C(O)COCC(=O)Nc1ccc(OCCc2ccccc2)cc1,4724,19,2,8,-24,3.1,-15
CC(NC(=O)C1CCN(S(=O)(=O)c2cnc[nH]2)CC1)c1ccccc1 (stereo not given),11296,2,-2,-4,-22,2.0,-1
COC(=O)c1cc(C(=O)OCC(=O)NCc2cccs2)cc([N+](=O)[O-])c1,4355,8,0,14,-25,-2.8,·
CCCc1ncc(C(O)c2cccc3ccccc23)n1C (stereo not given),4020,16,8,3,-16,1.6,4
O=C(CSc1nnc(CNC(=O)c2ccccc2)o1)Nc1ccc2c(c1)OCO2,5964,0,-2,-2,-6,-0.8,-4
COc1ccc(CC(=O)NCc2ccccc2)cc1S(=O)(=O)N1CCOCC1,8566,-4,9,-3,-17,3.9,-5
CC1(C)CC(=O)C2=C(C1)N(c1cccc(Cl)c1)C(=O)NC2(C(F)(F)F)C(F)(F)F,10375,6,7,2,-20,7.1,5
CC(=O)c1cccc(S(=O)(=O)N2CCCC(c3nc4c(nnn4Cc4ccccc4Cl)c(=O)[nH]3)C2)c1 (stereo not given),4368,-7,-2,0,-3,1.3,-11
Cc1nn(C)cc1S(=O)(=O)NCc1ccc2c(c1)OCO2,5687,14,1,1,-4,2.0,-1
COc1ccc(/C=C\c2nc(O)c([N+](=O)[O-])c(=O)[nH]2)cc1O,3792,2,0,10,-14,2.2,4
